# Bioassay records as filed in PubChem BioAssay.
# LANA-H2B inh: blocks KSHV LANA binding to histone H2A/H2B. Q9QR71. cell-free LANA-H2A/H2B peptide, fluorescence polarization. inhibition, % (test concentration not listed). hit rate 0.6% among 320,000; in the data active = inhibition mostly above about 10%, no sharp cut-off; inactive = mostly below about 6.7%;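 note: stock transfer was 7.5 nL into about 10 µL; 0% = median of vehicle wells and 100% = median of positive control wells; one replicate is shown; the record names a cut of 25% in any replicate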
# Beta2AR agonist: human beta-2 adrenergic receptor agonism by FAP | Am2.2-beta2AR cells, FAP receptor internalization, flow cytometry; reference of the scale not given here | AID 504454 | response, % (test concentration not listed) | hit rate 0.43% among 340,000 | P07550;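 active = response above a set limit, near 3 SD of response in nonfluorescent compounds, cut at about 42% in these data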;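 note: stock transfer was 100 nL into about 11 µL; a reference agonist was the positive control; negative values mostly stem from fluorescent compounds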
# Target sequence (P07550 whole entry, looked up): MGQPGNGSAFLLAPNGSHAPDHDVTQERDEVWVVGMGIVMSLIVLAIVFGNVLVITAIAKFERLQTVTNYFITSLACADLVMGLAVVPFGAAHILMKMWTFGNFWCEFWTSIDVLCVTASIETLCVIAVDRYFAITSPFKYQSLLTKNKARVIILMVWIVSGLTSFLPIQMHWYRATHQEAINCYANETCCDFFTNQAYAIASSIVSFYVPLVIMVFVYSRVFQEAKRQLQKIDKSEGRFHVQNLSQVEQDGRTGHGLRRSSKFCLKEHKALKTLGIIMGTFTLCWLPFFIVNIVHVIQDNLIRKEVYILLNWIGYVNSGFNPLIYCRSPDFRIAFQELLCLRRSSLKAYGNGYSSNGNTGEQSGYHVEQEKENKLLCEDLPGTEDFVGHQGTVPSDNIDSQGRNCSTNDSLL
# Calb FLC: affects C. albicans growth with fluconazole; C. albicans CaCi-2 (fluconazole-resistant clinical isolate) + fluconazole, Alamar Blue growth, 48 h; growth inhibition, % (test concentration not listed); hit rate 0.57% among 300,000; AID 1979;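 active = most replicates above 75%; inconclusive = exactly half above 75%; inactive = most below 75%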;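 note: all wells also contain fluconazole at 8 µg/ml as a sub-toxic cotreatment; 0% = median of DMSO wells and 100% = median of geldanamycin control wells; wells of about 8 µL received 7.5 nL stock; the first replicate is given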
# T cruzi repl: blocks replication of Trypanosoma cruzi; T. cruzi beta-gal in NIH3T3, luminescence, 90 h; inhibition, % (no concentration beside the values); hit rate 1.4% among 300,000; AID 1885;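 active = mean inhibition across valid replicates above about 55%, limit read from the data; inconclusive = mean below that limit but half or more replicates reach it; inactive = mean below it, under half of replicates reach it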;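 note: signal also drops with host cell toxicity which is not excluded here; 0% = plate median of DMSO wells and 100% = zero luminescence signal; higher percent means less beta-gal luminescence so fewer parasites; stock transfer was 50 nL into about 50 µL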
# Beta cell apopt: beta cell apoptosis inhibition; protection from apoptosis, % (concentration not given with the values); hit rate 0.8% among 300,000; INS-1E cytokine-induced death, ATP luminescence, 48 h; percent of positive-control rescue, neutral wells zero;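 active = all replicates at 75% or more, or half of them and the mean; inconclusive = half reach 75% but not the mean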;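 note: 0% = cytokine-treated negative control wells and 100% = positive control rescue; higher means more ATP so stronger rescue from cytokine killing; wells of about 40 µL received 100 nL stock; the first replicate is given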
# Bfl-1 A1 inh: inhibitors of the anti-apoptotic protein A1, read as caspase activation; MEF A1-2A-BIM cells, Caspase-Glo 3/7 luminescence, 3 h; percent of clofoctol response, vehicle zero; caspase activation, % (concentration not given with the values); hit rate 0.066% among 330,000;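 active = over half of replicate activation scores above 10%, or exactly half above 10 with the replicate mean above 10; inconclusive = replicate mean below 10 yet half the replicates above 10; inactive = over half of replicates below 10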;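 note: wells of about 30 µL received 50 nL stock; many hits fall short of the cut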
# ALR inh: human ALR oxidase inhibition via reduced H2O2. AID 485317. P55789. hit rate 3.8% among 290,000. purified ALR, DTT oxidation, H2O2 HRP-luminol luminescence. inhibition, % (test concentration not listed);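 active = mean and each replicate at 75% or more; inconclusive = only one of the two met; inactive = neither met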;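 note: stock transfer was 7.5 nL into about 7.5 µL; 0% = neutral wells and 100% = wells with inactivated enzyme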
# Target sequence (P55789 whole entry, looked up): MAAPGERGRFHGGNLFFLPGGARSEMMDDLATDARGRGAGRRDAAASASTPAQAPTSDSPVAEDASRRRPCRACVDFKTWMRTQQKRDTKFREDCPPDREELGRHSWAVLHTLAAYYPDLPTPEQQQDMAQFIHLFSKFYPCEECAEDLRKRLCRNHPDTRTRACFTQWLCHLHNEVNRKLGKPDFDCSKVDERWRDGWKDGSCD
# rRNA inh HTS: inhibits bacterial ribosomal RNA function over humanized ribosomes; E. coli WT GFP vs humanized-ribosome RFP mutants, fluorescence, 24 h; hits give low values; DMSO median 0, no signal -100; GFP signal change (wild-type ribosome), % (concentration not given with the values); hit rate 1.6% among 350,000; AID 720706;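 active = significant combined selectivity score with lowered wild-type GFP, culture density cut under 30%, mutant RFP and density less affected; inactive = any of these conditions unmet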; note: one replicate is shown; some compounds called inactive have numbers as strong as hits
# rRNA inh HTS OD600: recorded beside rRNA inh HTS, whose call it bears; OD600 change, %; measured here: OD600 growth;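 optical density of the mix in the first replicate; 0 = DMSO median and -100 = no signal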
# rRNA inh HTS RFP: further read-out of rRNA inh HTS, marked with its call; RFP signal change, %; measured here: RFP humanized mutant strains;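 first replicate; 0 = DMSO median and -100 = no signal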
# An asterisk follows results filed as active; i = inactive; ? = inconclusive; . = not tested or not shown. These rows are one share of the data; rates above refer to the full screens.
SMILES,LANA-H2B inh,Beta2AR agonist,Calb FLC,T cruzi repl,Beta cell apopt,Bfl-1 A1 inh,ALR inh,rRNA inh HTS,rRNA inh HTS OD600,rRNA inh HTS RFP
CC(C)NC(=O)c1ccccc1N(Cc1ccccc1)S(C)(=O)=O,2.6,6,-11,-2,3,-0.2,-18,.,.,.
COCCCNC(=O)c1cn(CCOC)c(=O)c2c1c1ccccc1n2C,-1.0,4,-9,-1,-1,-1.7,-29,5,7,-1.2
Cc1ccc(N=Nc2c(C)[nH]n(C(N)=S)c2=O)cc1,0.2,-4,2,-18,36,0.6,8,-9,-3,2.8
Cc1cc(C)c(O)c(-c2cc(C(=O)NCCc3ccc(S(N)(=O)=O)cc3)[nH]n2)c1,-9.3,-6,-12,-3,1,1.2,-2,-33*,16*,12*
COC(=O)c1sccc1NC(=S)Nc1cccc(F)c1,0.3,-1,-10,-7,1,0.2,-1,6,1,1.0
CCn1c(-c2ccoc2C)n[nH]c1=S,-1.6,0,-9,-5,0,0.5,6,.,.,.
COc1ccc(/C(=N/Nc2ncnc3ccccc23)C(=O)O)cc1,-3.6,11,6,-14,-1,0.4,-4,-1,-3,-1.2
COc1cc(/C=N/NC(=O)CC2(C)OCCCO2)ccc1OCc1ccccc1,1.6,0,-2,8,-3,-0.6,-12,.,.,.
CCOC(=O)c1c(NC(=S)Nc2cccnc2)sc(C)c1C,1.0,-4,7,-10,-5,0.7,.,-4,-9,-5.3
COc1cc(OC)c(OC)cc1CN1CCN(C(=O)CC(C)C)CC1,1.4,1,-12,-5,4,0.5,.,6,12,-0.1
COc1ccccc1NC(=O)c1nn(C)cc1Br,0.7,-11,-2,-3,0,0.1,-11,.,.,.
Cc1nc(-c2ccc(F)cc2)c(CC(=O)N2CCN(S(=O)(=O)c3cccc(Cl)c3)CC2)s1,4.2,3,-2,2,6,0.1,1,-6,-9,4.6
CSc1ccc(C#N)cc1NC(=O)c1ccc(Cl)cc1,0.8,-1,-12,3,1,-0.1,-21,.,.,.
Nc1ccnn1Cc1ccncc1,0.9,7,10,-10,.,-0.4,-13,16,16,3.0
CCCCCN(C(=O)CCC(=O)OCC(=O)NCc1cccc(OC)c1)c1c(N)n(CCCC)c(=O)[nH]c1=O,4.5,-6,-2,-4,-2,-0.1,3,-5,-7,1.4
Cc1ccc(C2=[N+]([O-])C(C)N(O)C2(C)C)o1 (stereo not drawn),-0.9,-5,9,-7,-3,0.2,0,.,.,.
Cc1cc(S(=O)(=O)N2c3ccc(F)cc3CCC2C)ccc1-n1cnnn1 (stereo not drawn),14,0,5,7,-1,-0.1,-3,-3,-28,-3.4
COc1ccc(NC(=O)c2cc3c(CO)cnc(C)c3oc2=Nc2cccc(F)c2)c(OC)c1,-2.8,-5,3,3,7,0.7,-4,9,19,-0.3
C=CCn1c(SCC(=O)NC23CC4CC(CC(C4)C2)C3)nc(O)cc1=O,-1.0,2,-5,2,-6,3.0,10,.,.,.
CC(Sc1nnc(N)s1)C(=O)Nc1ccc(N2CCOCC2)cc1 (stereo not drawn),-2.0,-9,-1,-1,-8,0.5,47,.,.,.
CCCCNC(=O)N(O)C1N(/N=C/c2cccnc2)C(=S)SC1(C)C (stereo not drawn),1.7,1,-1,.,-5,0.4,-1,.,.,.
O=C(C[N+]1(CC#Cc2ccccc2)CCCCC1)c1ccc(Cl)cc1,9.7,-1,-10,17,3,-0.8,-9,-27,-38,-0.7
CC1(C)CC(N=Cc2c(O)n(Cc3ccc4c(c3)OCO4)c(=O)c3ccccc23)CC(C)(C)N1,-0.4,7,88*,8,2,-0.6,-16,-49,-77,-8.7
COC(=O)c1ccccc1NC(=O)Cn1cnc2cc(C)c(C)cc21,1.1,1,?,-18,9,0.3,8,-11,8,0.0

# Some of the entries above in another layout.
compound	LANA-H2B inh	Beta2AR agonist	Calb FLC	T cruzi repl	Beta cell apopt	Bfl-1 A1 inh	ALR inh	rRNA inh HTS	rRNA inh HTS OD600	rRNA inh HTS RFP
CC(Sc1nnc(N)s1)C(=O)Nc1ccc(N2CCOCC2)cc1 (stereo not drawn)	-2.0	-9	-1	-1	-8	0.5	47	.	.	.
Nc1ccnn1Cc1ccncc1	0.9	7	10	-10	.	-0.4	-13	16	16	3.0
O=C(C[N+]1(CC#Cc2ccccc2)CCCCC1)c1ccc(Cl)cc1	9.7	-1	-10	17	3	-0.8	-9	-27	-38	-0.7

# (continued)
SMILES,LANA-H2B inh,Beta2AR agonist,Calb FLC,T cruzi repl,Beta cell apopt,Bfl-1 A1 inh,ALR inh,rRNA inh HTS,rRNA inh HTS OD600,rRNA inh HTS RFP
CN(C(=O)CSc1n[nH]c(-c2cccs2)n1)C1CCS(=O)(=O)C1 (stereo not drawn),-0.6,-4,13,-2,-5,-0.1,-4,-2,2,1.8
Cc1cccc(C)c1NC(=O)CNC(=O)CCCc1c[nH]c2ccccc12,-3.9,9,-8,-6,3,0.9,36,2,9,2.1
O=C(CCn1nnc2ccccc2c1=O)N[C@@H](Cc1c[nH]c2ccccc12)C(=O)O,-3.1,-4,1,8,-4,0.3,-38,8,4,1.4
COc1ccc(C2OC(=O)CC2C(=O)NC2CCCCCC2)cc1OC (stereo not drawn),-0.7,1,?,-13,-3,0.3,52,10,10,-4.3
CCCC1Cc2c(sc3nc(SC)nc(N)c23)CO1 (stereo not drawn),-0.1,-2,.,.,4,0.0,1,.,.,.
COc1cc(C(=O)NCc2ccco2)cc(OC)c1OC,-1.2,5,-3,-5,1,1.6,-10,.,.,.
COc1ccc(N2CCN(S(=O)(=O)c3cnc[nH]3)CC2)cc1,33*,-9,1,-16,-5,0.0,4,6,0,-0.9
COC(=O)CN1C2=NCCCN2c2ccccc21,-2.0,-4,-3,-14,-2,0.6,-1,.,.,.
CCN(CC)C1CCN(C(=O)c2ccc(OC3CCN(Cc4ccccn4)CC3)cc2)C1 (stereo not drawn),0.9,9,5,1,-8,-0.4,-8,14,16,2.7
Cc1cc(C)cc(NC(=O)CSc2nc3[nH]ncc3c(=O)[nH]2)c1,2.0,-4,-14,-17,.,-0.1,5,1,-4,-2.1
Cn1c2ccccc2c2cnn(CC(=O)NCCCN3CCN(c4ccccc4F)CC3)c(=O)c21,0.9,-1,7,19,2,3.8,1,3,4,2.0
CC(=O)c1ccc(NC(=S)N2C(C)CCCC2C)cc1 (stereo not drawn),-0.4,.,-13,-19,-3,0.5,9,.,.,.
Cc1cc(NC(=O)CSc2ccc(-c3ccc4c(c3)OCO4)nn2)no1,3.9,.,-24,-12,1,-1.0,-3,14,8,-8.0
C/C(CC(=O)Nc1ccc(Cl)c(Cl)c1)=N\NC(=O)Cc1ccccc1,.,2,38,-4,1,2.7,.,-24,-44,16
COc1ccc(C(=O)NNC(=O)c2ccc(S(=O)(=O)N3CCCCC3)cc2)cc1,-3.9,7,5,-26,2,-0.2,0,5,2,0.9
CC(NS(=O)(=O)c1cccc(C(=O)NCc2ccncc2)c1)c1ccccc1 (stereo not drawn),i,4,.,.,-4,0.4,.,.,.,.
COC(=O)c1ccc(CSc2nc3ccc(C)cc3[nH]2)o1,-0.6,4,-16,-20,-4,-0.1,95*,.,.,.
CN1CCN(c2ccc(Cl)cc2NS(=O)(=O)c2ccccc2Cl)CC1,-0.1,6,-7,8,-6,0.8,8,.,.,.
COCCOC(=O)c1c(C)n(C)c2ccc(OC(=O)c3cccs3)cc12,-7.2,6,-6,-1,0,-0.9,-9,.,.,.
CC(=O)Nc1ccc(OC(=O)c2ccc(Cl)cc2)cc1,5.2,0,-29,-5,0,-0.5,5,3,1,3.7
COc1ccc(S(=O)(=O)N(C)c2ccc(C(=O)N3CCC(C(N)=O)CC3)cc2)cc1,-2.7,6,-9,-21,1,1.2,-16,.,.,.
COc1ccc(NC(=O)CSc2c(C)n[nH]c2C)cc1,-1.5,12,-15,-11,3,-0.2,99*,.,.,.
CCNC(=O)CC1C(=O)N(c2ccccc2)C(=O)N1CCOC (stereo not drawn),3.1,-2,2,-9,1,0.8,-7,-2,18,-2.9
CC(C)(C)c1ccc(OC(=O)c2ccccc2)cc1,3.3,-8,-15,-6,-2,-0.1,-2,19,18,6.2
COC(=O)c1ccc(N2CCN(c3ccccc3)CC2)nc1,-1.6,-5,-7,-3,5,-2.9,6,9,16,-0.9
c1ccc(Oc2ccc(-c3ccnc4nc(N5CCN(c6ccccc6)CC5)nn34)cc2)cc1,-15,26,-20,43,7,0.7,-12,.,.,.
O=C(CSc1nnc2c(n1)[nH]c1ccccc12)Nc1ccc2c(c1)OCO2,0.5,0,12,-5,1,-0.1,-8,.,.,.
COCCn1nnnc1C(c1cc2cccc(C)c2[nH]c1=O)N1CCN(c2ccccc2F)CC1 (stereo not drawn),1.7,3,-7,9,-2,0.1,-13,.,.,.
Cc1cc(C(=O)CCl)c(C)n1CCc1ccccc1,1.9,.,-27,-20,12,1.4,96*,11,2,14
O=C(CCNC(=O)c1ccc(Br)cc1)NCc1ccncc1,3.0,-6,9,-10,0,0.0,-3,5,11,-1.5
O=C(NCc1n[nH]c(=S)n1-c1ccccc1)c1cccs1,8.3,-2,13,-20,-13,0.6,50,15,9,4.4

# Among those listed so far, 10 have an aryl thioether with sulfur outside any ring.
SMILES,LANA-H2B inh,Beta2AR agonist,Calb FLC,T cruzi repl,Beta cell apopt,Bfl-1 A1 inh,ALR inh,rRNA inh HTS,rRNA inh HTS OD600,rRNA inh HTS RFP
CSc1ccc(C#N)cc1NC(=O)c1ccc(Cl)cc1,0.8,-1,-12,3,1,-0.1,-21,.,.,.
C=CCn1c(SCC(=O)NC23CC4CC(CC(C4)C2)C3)nc(O)cc1=O,-1.0,2,-5,2,-6,3.0,10,.,.,.
CC(Sc1nnc(N)s1)C(=O)Nc1ccc(N2CCOCC2)cc1 (stereo not drawn),-2.0,-9,-1,-1,-8,0.5,47,.,.,.
CN(C(=O)CSc1n[nH]c(-c2cccs2)n1)C1CCS(=O)(=O)C1 (stereo not drawn),-0.6,-4,13,-2,-5,-0.1,-4,-2,2,1.8
CCCC1Cc2c(sc3nc(SC)nc(N)c23)CO1 (stereo not drawn),-0.1,-2,.,.,4,0.0,1,.,.,.
Cc1cc(C)cc(NC(=O)CSc2nc3[nH]ncc3c(=O)[nH]2)c1,2.0,-4,-14,-17,.,-0.1,5,1,-4,-2.1
Cc1cc(NC(=O)CSc2ccc(-c3ccc4c(c3)OCO4)nn2)no1,3.9,.,-24,-12,1,-1.0,-3,14,8,-8.0
COC(=O)c1ccc(CSc2nc3ccc(C)cc3[nH]2)o1,-0.6,4,-16,-20,-4,-0.1,95*,.,.,.
COc1ccc(NC(=O)CSc2c(C)n[nH]c2C)cc1,-1.5,12,-15,-11,3,-0.2,99*,.,.,.
O=C(CSc1nnc2c(n1)[nH]c1ccccc12)Nc1ccc2c(c1)OCO2,0.5,0,12,-5,1,-0.1,-8,.,.,.
